GIV Gai3 FP – inhibitors of GIV peptide binding to Galpha-i3, primary screen, biochemical, fluorescence polarization, FITC-GIV GBA peptide, rat Galphai3; AID 1224905, 2016; 90 min; stronger effect = lower value; scaled: aluminum fluoride 0%, vehicle 100%; Guanine nucleotide-binding protein G(i) subunit alpha-3 (Rattus norvegicus), P08753; 0.42% of 210,000 active; percent of control (FP), % (test concentration not listed);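 active means replicate mean at 85% of control or lower, very high polarization wells dropped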;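 further: wells of about 15 µL received 100 nL stock; the first replicate is given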
Target sequence (P08753 whole entry, looked up): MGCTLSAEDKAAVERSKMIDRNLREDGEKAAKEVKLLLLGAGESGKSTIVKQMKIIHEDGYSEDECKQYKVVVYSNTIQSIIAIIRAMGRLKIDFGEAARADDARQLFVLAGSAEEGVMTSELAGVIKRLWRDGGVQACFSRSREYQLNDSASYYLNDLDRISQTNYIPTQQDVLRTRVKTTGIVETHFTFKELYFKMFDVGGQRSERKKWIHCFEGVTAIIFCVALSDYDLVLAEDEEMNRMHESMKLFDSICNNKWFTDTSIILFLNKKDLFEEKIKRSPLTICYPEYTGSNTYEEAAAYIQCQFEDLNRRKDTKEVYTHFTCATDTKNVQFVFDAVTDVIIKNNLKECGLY
* = called active by the depositor.

GIV Gai3 FP | canonical_smiles
102.8 | CCOc1cc(-c2nc3sc4c(c3c(=O)[nH]2)CCCC4)cc(Br)c1OCc1ccccc1F
108.3 | CCc1nnc(NC(=O)c2sc3nc4c(cc3c2N)CCCCC4)s1
100.6 | CCOc1ccc(S(=O)(=O)N2CCCN(c3nc4cccnc4s3)CC2)cc1
107.8 | Cc1cc(-n2c(SCc3cc(=O)n4c(C)cccc4n3)nc3n[nH]c(C)c3c2=N)ccc1Cl
103.1 | Nc1c(C(=O)Nc2ccc(F)cc2)sc2nc3c(c(-c4ccco4)c12)CCC3
105.0 | Cc1cc(NC(=O)c2nc(-n3cnnc3)ccc2Br)no1
103.8 | O=C(Nc1ccc(SCc2nnc(-c3ccccc3)o2)cc1)c1ccccc1
106.5 | CC(C)(C)c1ccc(C2=Nc3ccccc3N=C(c3ccccc3O)C2)cc1
102.8 | Cc1nn(-c2nc3ccc(Br)cc3s2)c2c1C(c1ccc(Cl)cc1)CC(=O)N2 (centres undefined)
103.7 | CC(C)c1cc(C2CCCN2C(=O)Nc2cccc(Cl)c2)no1 (centres undefined)
106.4 | CCOC(=O)Nc1ccc2c(c1)N(C(=O)N(CC)CC)c1ccccc1CC2
104.2 | COc1ccc(N2CCN(CCNC(=O)c3oc(=O)c4ccccc4c3-c3ccc(C)cc3)CC2)cc1
99.7 | Cc1c(C(=O)NCc2ccco2)sc2ncnc(N3CCN(c4ccccc4)CC3)c12
111.6 | O=C1NC(c2ccccc2)/C(=C(/O)c2ccc(Br)cc2)C1=O (centres undefined)
110.6 | COc1ccc(Nc2ncnc3sc(C(=O)O)c(C)c23)cc1Cl
111.1 | Cc1cccc(NC(=O)c2ccc(N3CC4CC(C3)c3cccc(=O)n3C4)c(NC(=O)c3cccc(C(F)(F)F)c3)c2)n1 (centres undefined)
105.3 | O=C(Oc1ccc2c(=O)c(Oc3ccccc3Br)coc2c1)c1cccs1
109.1 | COc1cccc(/C=C2\SC(=S)N(CCCC(=O)Nc3nnc(CC(C)C)s3)C2=O)c1
98.3 | CC(C)c1ccc(S(=O)(=O)N2CCCC2c2nc(-c3ccc(Cl)cc3)no2)cc1 (centres undefined)
109.5 | CC(O)C1CCN(Cc2ccc(Br)o2)CC1 (centres undefined)
106.2 | Cc1ccc(S(=O)(=O)NC2CCN(C(=O)c3cc4ccccc4[nH]3)CC2)cc1
99.5 | O=c1[nH]nc(C2CCCN(S(=O)(=O)C3CC3)C2)n1-c1ccccc1 (centres undefined)
93.4 | O=C(Nc1cccc(F)c1)N1CCCN(c2nc3cc(F)ccc3n3cccc23)CC1
105.7 | O=C(NCCC1=CCCCC1)c1ccc(N2CC3CC(C2)c2cccc(=O)n2C3)c(NC(=O)c2ccccc2Cl)c1 (centres undefined)
103.0 | c1ccc(CNc2nc(-c3ccccc3)[n+](-c3ccccc3)s2)cc1
104.8 | Cc1ccc(S(=O)(=O)Nc2ccc3c(c2)c2c(n3S(=O)(=O)c3ccc(C)cc3)CCCC2=O)cc1
101.5 | O=c1c2cc3c(cc2nc(SCc2nc(-c4cccc(Cl)c4)no2)n1C1CC1)OCO3
112.4 | COc1ccc(N2C(N)=C(C#N)C(c3ccc(N(C)C)cc3)C3=C2CC(C)(C)CC3=O)cc1 (centres undefined)
102.0 | CC(=O)N1CCc2cc(N3CC(C(=O)NC(C)C)CC3=O)ccc21 (centres undefined)
110.4 | O=S(=O)(c1ccccc1)c1nc(Cc2ccccc2)oc1N1CCCCC1
102.3 | Cc1cc(N(C)C)nc(Nc2ccc(NS(C)(=O)=O)cc2)n1
110.7 | O=C1CC(c2ccc(C(F)(F)F)cc2)c2ccc3ccccc3c2N1 (centres undefined)
119.5 | O=C(c1cc2nc(-c3ccc(Br)cc3)cc(C(F)(F)F)n2n1)N1CCCC1
105.7 | Cc1cccc(-c2nnc(-c3nc(NC4CCS(=O)(=O)C4)c4ccccc4n3)o2)c1 (centres undefined)
106.2 | O=C(Nc1cc(Cl)cc(Cl)c1)c1ccc(F)c(S(=O)(=O)N2CCN(c3ccccc3)CC2)c1
100.5 | COc1cccc(/C=C/c2nc3ccccc3c(=O)n2-c2ccc(NC(C)=O)cc2)c1OC
108.4 | CCCCN(CC)S(=O)(=O)c1ccc2c(c1)N(Cc1noc(C)n1)C(=O)CO2
102.3 | O=C(Nc1ccc(C2(C(=O)NC3CCCCC3)CC2)cc1)c1ccc(Cl)cc1
105.5 | CC(C)c1cc(C2CCCN2S(=O)(=O)c2ccc3c(c2)CCCC3)on1 (centres undefined)
102.9 | COc1cc(NC(=O)c2cc3n(n2)C(C(F)(F)F)CC(c2ccccc2)N3)cc(OC)c1OC (centres undefined)
116.2 | Cn1c(=O)[nH]c(=O)c2c1nc1n(-c3ccccc3)c(-c3ccccc3)cn21
108.3 | O=[N+]([O-])c1ccc(-c2ccc(-c3[nH]c(-c4ccc(O)cc4)nc3-c3ccccc3)cc2)cc1
113.1 | CCOC(=O)C1=C(CSc2nc(C)cc(C)c2C#N)OC(N)=C(C#N)C1c1ccccc1 (centres undefined)
117.3 | C=CCSc1nnc2n(-c3ccccc3C)c(=O)c3c4c(sc3n12)CCCC4
117.1 | O=C1/C(=C/c2ccc(Cl)cc2)C=C(c2ccccc2)N1c1cccc(I)c1
105.3 | O=S(=O)(c1ccc(-c2cnc(C3CCC3)o2)s1)N1CCOCC1
104.4 | CC(C)(C)c1ccc(-c2nnc3s/c(=C\c4ccccc4)c(=O)n23)cc1
122.0 | O=[N+]([O-])c1ccc2c(c1)C(N1CCOCC1)/C(=C/C1(O)CCCCC1)O2 (centres undefined)
109.0 | COC(=O)C(NC(=O)c1ccc(C)cc1)(Nc1sc2c(c1C#N)CCC(C)C2)C(F)(F)F (centres undefined)
99.1 | O=C1CN(Cc2ccc(Cl)cc2)S(=O)(=O)c2ccccc2N1Cc1ccccc1
104.7 | Cc1ccc(-n2ccc(=O)c(-c3nc(-c4ccccc4Br)no3)n2)cc1C
105.4 | COc1ccccc1C(=O)NCc1ccc2c(c1)N(C(=O)c1ccc(Cl)cc1)CC2
99.6 | CC(C)CNC(=O)N1CCCCCC1c1cccs1 (centres undefined)
94.0 | O=S(=O)(CCc1noc(C2CCCC2)n1)c1ccccc1
115.4 | N#CC1(C#N)C(c2ccc(Cl)c(Cl)c2)C(C(=O)c2ccccc2)N2c3ccccc3C=CC21 (centres undefined)
103.4 | Cn1c(=O)n(C)c2cc(NC3=C(C(=O)Nc4ccc(F)cc4)S(=O)(=O)c4ccccc43)ccc21
122.3 | CCCCCC1CC(CC(O)CO)C(=O)O1 (centres undefined)
106.1 | CCN(CC)c1ccc(-c2noc(CN3CCSCC3)n2)cn1
102.0 | CC1=C(C(=O)Nc2ccccc2)C(c2ccccc2Br)NC(=O)N1 (centres undefined)
97.4 | COc1ccccc1N1CCN(S(=O)(=O)c2cc(-c3nc(C(C)C)cs3)cs2)CC1

Further records.
GIV Gai3 FP | canonical_smiles
111.9 | CCOC(=O)C1=C(CCl)OC(N)=C(C#N)C1c1cccc(F)c1 (centres undefined)
100.0 | O=C(NCc1ccc2c(c1)OCO2)C1CCC(CNS(=O)(=O)c2cccc3cccnc23)CC1 (centres undefined)
105.5 | Cc1ccc(CNS(=O)(=O)c2c(C)nc3sc(C)nn23)o1
118.6 | O=C(Cc1ccc(F)cc1)Nc1ccc2c(c1)OC1(CCCCC1)O2
102.0 | Cc1ccc(N2C(=O)Nc3ccccc3S2(=O)=O)cc1
103.7 | CC(C)(C)NC(=O)CSc1nc2ccc(NC(=O)c3ccccc3F)cc2s1
101.6 | O=C1CCCN1CCCNc1nc(C2CC2)nc2c1CCC2
104.0 | CNC(=O)c1c(NC(=O)c2ccc(S(=O)(=O)N3CCOCC3)cc2)sc2c1CCC2
107.4 | CN(C)c1ccc(CNc2nc(-c3nnc(-c4ccccc4)o3)nc3ccccc23)cc1
104.0 | CCN(CC)c1nc(C)nc2sc(C(=O)Nc3cc(C)ccc3OC)c(C)c12
104.0 | Cn1cnc(S(=O)(=O)NCc2nnc(C(=O)Nc3ccc(F)cc3F)s2)c1
100.7 | O=C(CCc1nnc2ccc(-c3ccc(Cl)cc3)nn12)N1CCN(c2ccccc2F)CC1
102.7 | CCc1ccccc1N(C)S(=O)(=O)c1ccc2[nH]cc(C(=O)NCCCN3CCOCC3)c(=O)c2c1
107.5 | OC(CN1CCCC1)Cn1c2ccc(Br)cc2c2cc(Br)ccc21 (centres undefined)
99.6 | O=S(=O)(c1cccn2c(SCc3ccccc3)nnc12)N1CCCC1
106.4 | COc1ccc(-c2cc(C(F)(F)F)n3nc(C(=O)NCCc4c[nH]c5ccccc45)cc3n2)cc1OC
115.6 | O=c1c2sc(=S)n(CCc3ccccc3)c2nc(SCc2cc(=O)n3cc(Cl)ccc3n2)n1Cc1ccco1
97.8 | Cc1cccn2cc(-c3ccc(S(=O)(=O)N4CCOCC4)cc3)nc12
99.5 | O=C(CSc1nc2[nH]ncc2c(=O)n1-c1cccc2ccccc12)NCc1cccc(Cl)c1
113.7 | CCOc1cc(/C=C2\C(=O)N(c3ccc([N+](=O)[O-])cc3)N=C2c2ccccc2)ccc1OC

Ordered by heavy-atom count (low to high): 6 of the compounds above
GIV Gai3 FP | canonical_smiles
107.5 | OC(CN1CCCC1)Cn1c2ccc(Br)cc2c2cc(Br)ccc21 (centres undefined)
104.0 | Cn1cnc(S(=O)(=O)NCc2nnc(C(=O)Nc3ccc(F)cc3F)s2)c1
104.0 | CCN(CC)c1nc(C)nc2sc(C(=O)Nc3cc(C)ccc3OC)c(C)c12
104.0 | CNC(=O)c1c(NC(=O)c2ccc(S(=O)(=O)N3CCOCC3)cc2)sc2c1CCC2
113.7 | CCOc1cc(/C=C2\C(=O)N(c3ccc([N+](=O)[O-])cc3)N=C2c2ccccc2)ccc1OC
100.0 | O=C(NCc1ccc2c(c1)OCO2)C1CCC(CNS(=O)(=O)c2cccc3cccnc23)CC1 (centres undefined)

(continued)
GIV Gai3 FP | canonical_smiles
113.9 | Cc1c(C(=O)Nc2c(F)cccc2F)sc2ncnc(N3CCCCC3)c12
102.0 | CCOC(=O)c1c(NC(=O)c2cc3cc(OC)ccc3oc2=O)sc(C(C)=O)c1C
100.3 | COc1ccc(Br)cc1C1C(N2C(=O)c3cccc([N+](=O)[O-])c3C2=O)C(=O)N1c1cc(Cl)ccc1C (centres undefined)
101.1 | CN(C)c1cc(N2CCCC(NS(C)(=O)=O)C2)ncn1 (centres undefined)
106.9 | CCOC(=O)CC1(NC(=O)N2CCCC2c2cc(C(C)C)on2)CCCCC1 (centres undefined)
106.6 | Cc1ccc(NC(=O)CSc2nc3ccccc3nc2Cc2cccc([N+](=O)[O-])c2)c(C)c1
98.9 | CCc1nc(-c2csc(S(=O)(=O)NCc3ccc4c(c3)OCO4)c2)no1
102.3 | Cc1ccc(S(=O)(=O)N2CCC(c3noc(-c4cccc(F)c4)n3)CC2)cc1F
107.6 | Cc1nn(-c2nc3ccccc3[nH]2)c2c1C(c1ccc(C(=O)O)cc1)CC(=O)N2 (centres undefined)
113.5 | CC(=O)N1N=C(c2cccnc2)OC1c1ccc(C(C)C)cc1 (centres undefined)
110.8 | COc1ccc(/C=c2\sc3n(c2=O)C(N)=C(C#N)C(c2ccc(OC)c(OC)c2)C=3C#N)cc1OC (centres undefined)
97.3 | O=C(c1ccsc1)N1CCN(c2ncnc3c2CCC3)CC1
110.0 | CCCCC(=O)N1C2=C(C(=O)c3ccccc32)C(c2ccc(Cl)cc2)c2c1n(C)c(=O)n(C)c2=O (centres undefined)
120.2 | COc1cc(C2CC(=O)NC(SCC(=O)OCc3ccccc3)=C2C#N)ccc1O (centres undefined)
109.1 | CCOc1ccc(-n2c(=S)sc3c(=O)[nH]c(SCC(=O)N4CCC(C)CC4)nc32)cc1
98.9 | C=CCNC(=O)NC1CCN(C2=NS(=O)(=O)C(c3ccc(F)cc3)=C2C)CC1
112.0 | Cc1ccc(Cl)cc1NC(=O)c1ccc(N2CC3CC(C2)c2cccc(=O)n2C3)c(NC(=O)/C=C/c2ccccc2)c1 (centres undefined)
108.5 | CCNCC(=O)N1c2ccccc2CCc2ccc(NC(=O)OC(C)C)cc21
102.5 | CCOC(=O)c1[nH]c(C)c(CN(Cc2ccc(OC)cc2)C(=O)Nc2ccc(OCC)cc2)c1C
104.8 | O=C(NCc1csc(-c2ccccc2)n1)[C@H]1CSCN1S(=O)(=O)c1ccccc1

The list goes on (4 carried over from the part before).
GIV Gai3 FP | canonical_smiles
112.0 | Cc1ccc(Cl)cc1NC(=O)c1ccc(N2CC3CC(C2)c2cccc(=O)n2C3)c(NC(=O)/C=C/c2ccccc2)c1 (centres undefined)
108.5 | CCNCC(=O)N1c2ccccc2CCc2ccc(NC(=O)OC(C)C)cc21
102.5 | CCOC(=O)c1[nH]c(C)c(CN(Cc2ccc(OC)cc2)C(=O)Nc2ccc(OCC)cc2)c1C
104.8 | O=C(NCc1csc(-c2ccccc2)n1)[C@H]1CSCN1S(=O)(=O)c1ccccc1
111.4 | O=C(CCn1c(N2CCCC2)nc2ccsc2c1=O)NC1CCCC1
107.5 | COc1ccc(C2c3c(-c4ccc(C)cc4)n[nH]c3C(=O)N2c2ccccc2)cc1 (centres undefined)
118.8 | CCN(CC)c1ncnc2sc(C(=O)Nc3cc(Cl)ccc3OC)c(C)c12
97.9 | Cc1cc(-c2c(C)sc(C)c2S(=O)(=O)Nc2cccc(Cl)c2)n[nH]1
103.1 | CC1=C(c2ccccc2)S(=O)(=O)N=C1N1CCC(NC(=O)NC(C)(C)C)CC1
104.4 | Cc1noc(C)c1C1CCCN1Cc1cccc(Br)c1 (centres undefined)
101.4 | COc1ccc(C2CC(c3ccccc3)=Nc3ccccc3S2)cc1 (centres undefined)
106.5 | O=C(Nc1ccccc1)c1cccc(Nc2ncc(-c3cccc(F)c3)cn2)c1
97.1 | CC1CCN(C(=O)c2snc3c(=O)n(C4CC4)c(=O)[nH]c23)CC1
108.0 | COC(=O)c1ccc2c(=O)n(CCN3CCOCC3)c(SCC(=O)Nc3ccc(OC)cc3OC)nc2c1
110.7 | FC(F)(F)c1cc(Cn2c3ccccc3c3nc4ccccc4nc32)cc(C(F)(F)F)c1

An excerpt; the hit share may differ from the screen's.
